# Source: PubChem (National Center for Advancing Translational Sciences (NCATS))
# HPGD block: HPGD (human) dehydrogenase inhibition; P15428; purified HPGD, NADH fluorescence kinetic, PGE2 substrate; Potency, µM, without a hit: top-dose activity change, negative = inhibition, usual class: inhibitors; 4.3% of 150,000 active; active = well fitted inhibition curve with a large enough effect (not every such curve was filed as active); inconclusive = small, poorly fitted or top-dose-only effect, or another doubt; inactive = no such curve, though single readings can be large or run the other way;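 note: top concentration of the series not given in the record; plate controls included wells without enzyme; inactives centre near -10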
# Target sequence (P15428 whole entry, looked up): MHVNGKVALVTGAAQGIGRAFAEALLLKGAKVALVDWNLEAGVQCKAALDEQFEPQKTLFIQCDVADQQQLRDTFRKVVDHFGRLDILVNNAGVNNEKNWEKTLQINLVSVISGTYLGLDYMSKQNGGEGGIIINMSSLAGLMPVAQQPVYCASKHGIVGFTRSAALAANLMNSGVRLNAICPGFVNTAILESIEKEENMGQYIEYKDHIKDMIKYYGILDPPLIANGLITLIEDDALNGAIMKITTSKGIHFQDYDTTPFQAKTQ
#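 20 nM HPGD preincubated 15 min at room temperature with compound in 50 mM Tris-HCl pH 8, 0.01% Tween 20. Started with 1 mM NAD+ and 30 uM prostaglandin E2; NADH fluorescence (360/450 nm) read 5 times over 30-s intervals, last minus first.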
# An asterisk follows results filed as active; ? = inconclusive; [ ] = remark or other dose. % is set by controls: 0 for no effect and ±100 for the full control effect; potency is the fitted concentration of half-maximal effect.
HPGD block | SMILES
? | O=C(COc1ccc2ccccc2c1)NC1=NCCS1
1% | CCC(c1nc2ccccc2c(=O)n1-c1nc2ccccc2s1)N1C(=O)c2ccccc2C1=O (centres undefined)
-27% | CCCn1c(-c2ccc(F)cc2)nc2c(NCCCN(C)C)nc(C)nc21
11µM* | N#CC1=C2SCN(Cc3ccco3)CN2C(=O)CC1c1ccc(Cl)cc1 (centres undefined)
-10% | Cc1ccc(/C=C/C(=O)c2nc3ccccc3[nH]2)cc1
-10% | CCn1c(SCC(=O)Nc2nnc(C)s2)nnc1-c1ccncc1
-2% | Cc1ccc(S(=O)(=O)N2CCN(S(C)(=O)=O)C2)cc1
-15% | S=C1COC(c2ccccc2)N1c1ccccc1 (centres undefined)
-8% | COc1ccc(CCNC(=O)CN(C2CCCCC2)S(C)(=O)=O)cc1OC
-8% | CCCC1OC2CC3C4CCC5=CC(=O)C=CC5(C)C4C(O)CC3(C)[C@]2(C(=O)CO)O1 (some centres undefined)
-25% | CC(C)C1NC(=S)N(C2CCCCC2)C1=O (centres undefined)
2% | CCN1CCN(C(=S)c2ccc(OCC(=O)N3CCOCC3)cc2)CC1
-11% | O=C(CSc1nc2ccccc2c(=O)[nH]1)N1CCOCC1
-15% | CC(C)(C)NC(=O)NC(=O)COc1ccccc1C#N
-15% | O=C(OCc1ccc(C(=O)c2ccccc2)cc1)c1cccc(-c2nnc(-c3ccccc3)o2)c1
-4% | N#CC1=C(N)C(C#N)(C#N)C2(CCC3(CC2)OCCO3)C2CC3(CC=C12)OCCO3 (centres undefined)
-15% | CCCC(=O)c1cc(F)c(N2CCN(S(=O)(=O)c3ccccc3)CC2)cc1C
0% | O=C(O)C1CCCCC1C(=O)NCCC(c1ccccc1)c1ccccc1 (centres undefined)
-9% | Cc1cc2c(cc1C)CSC(c1c(O)ccc3ccccc13)SC2
-16% | Cc1ccc(-c2nc3ccccc3s2)cc1S(=O)(=O)N1CCOCC1
-8% | CC1CCC2(OC1)OC1CC3C4CCC5CC(O)CCC5(C)C4=CCC3(C)C1C2C (centres undefined)
? | O=C(O)CCCCCn1c(SCc2cc(=O)n3ccccc3n2)nc2ccsc2c1=O
? | CCC(=O)Nc1ccccc1C(=O)OC(c1ccccc1)c1ccccc1
-8% | COc1ccc(-c2ccnc(SCC(=O)c3ccc(OC)c(OC)c3)n2)cc1
1% | COCCNS(=O)(=O)c1cc(F)ccc1OC
-5% | COc1ccc(-c2c(C)nn3c(N4CCC5(CC4)OCCO5)cc(C)nc23)cc1OC
-3% | C=C(C)C1CC=C(C)/C(=N/NC(=O)COc2cccc3ccccc23)C1 (centres undefined)
-6% | CN(c1ccc(S(=O)(=O)N2CCOCC2)cn1)C1CCCCC1
-7% | COc1ccc(C=NCC2OCCc3ccccc32)cc1OC (centres undefined)
-11% | CC1(NC(=S)N(CCO)CCO)CCS(=O)(=O)C1 (centres undefined)
-16% | COc1cccc(Oc2cnc(N)nc2-c2ccc(OC)cc2O)c1
-4% | O=C(/C=C/c1ccc(F)cc1)NCC1(c2ccccc2)CCOCC1
-4% | Cc1nc2ccccc2c(-c2ccccc2)c1CC(=O)O
-5% | CC(C)CCOc1ccc(C(CC(N)=O)C(=O)O)cc1 (centres undefined)
-23% | CC(C)C(CCNC(=O)CC(Cc1ccccc1)c1ccco1)c1ccco1 (centres undefined)
-9% | CCOc1cc(C)c(C(C)C)cc1S(=O)(=O)N1CC(C)OC(C)C1 (centres undefined)
-7% | CCOC(=O)c1c(NC(C)=O)sc2c(OC)cccc12
-7% | Cc1cc(N(C)C)nc(SC(C)C)n1
79%[activator] | COc1ccc(C)cc1-n1nnnc1SCc1cc(=O)n2cc(C)ccc2n1
-25% | COc1c2ccoc2c(OC[C@@H](O)C(C)(C)OC)c2oc(=O)ccc12
-7% | CCOc1ccc(-c2cn[nH]c2N)cc1
-25% | CCc1nc(SCC(=O)c2cccs2)c2oc3ccccc3c2n1
? | O=c1ccc2ccc(O)c(O)c2o1
-18% | COc1cc(CNCc2ccccn2)ccc1OCC(=O)NC1CCCCC1
? | CCCCn1c(SCc2ccc(Cl)cc2)nc2c1c(=O)[nH]c(=O)n2C
1% | COc1ccc(N2CCN(C(c3cc(OC)ccc3OC)c3nnnn3CC3CCCO3)CC2)cc1 (centres undefined)
-20% | CCc1cc(-c2n[nH]c(=S)n2CC(C)C)cs1
-7% | CSc1ccc(S(=O)(=O)NCc2ccc(Cl)cc2)cc1
-13% | CCCn1c(=NC(=O)c2ccc3c(c2)OCO3)c(C#N)cc2c(=O)n3cccc(C)c3nc21
-14% | O=C(CSc1nc2ccccc2o1)N1c2ccccc2Sc2ccc(C(F)(F)F)cc21

# Continued.
HPGD block | SMILES
-22% | O=C(Cc1ccc(Cl)c(Cl)c1)OCC(=O)c1ccc[nH]1
-2% | NC(=O)c1ccc(NC(=O)CCCN2C(=O)c3ccccc3C2=O)cc1
-4% | COC(=O)CCSCC(=O)Nc1nnc(C)s1
-12% | O=C(Nc1ccc(N2CCN(C(=O)c3ccc(Cl)cc3)CC2)cc1)c1cccnc1
-8% | COc1ccc(OC)c(S(=O)(=O)N(C)CC(=O)N2CCN(c3cccc(Cl)c3)CC2)c1
-1% | CC(CCc1ccccc1)NC(=O)C(=O)NCc1ccccc1 (centres undefined)
-7% | Cc1nc(Cl)sc1C(=O)Nc1cccc(Cl)c1C
-6% | CCOCCCNC(=O)C1CCCN1S(=O)(=O)c1ccc(Cl)cc1 (centres undefined)
25µM* | CN(c1ccccc1)c1ccc(/C=C(\CCC(=O)O)c2nc3ccccc3s2)cc1[N+](=O)[O-]
-11% | CCOc1cccc(C2C(C(=O)c3ccc(C)o3)=C(O)C(=O)N2Cc2ccncc2)c1 (centres undefined)
-3% | CCc1ccc(CNC(=O)C2CCC(=O)N2C2CCCCC2)cc1 (centres undefined)
-9% | CN1CCCN(S(=O)(=O)c2ccc3c(c2)OCCO3)CC1
-8% | COc1ccccc1Oc1coc2cc(OC(=O)N3CCOCC3)ccc2c1=O
-21% | COc1ccc(/C=N/NC(=O)Cc2csc(Nc3cccc(C(F)(F)F)c3)n2)cc1C
-8% | O=C(NC1(C(F)(F)F)N=C2SCCN2C1=O)c1ccccc1 (centres undefined)
? | CCN(CC)C(=O)Oc1cc(=O)n2c3c(cccc13)CCC2
-16% | CCOC(=O)c1cc2occc2n1CC(=O)N1CCOCC1
0% | CCCCCC1C(=O)C[C@@H]2CCN3C(=O)CCC[C@H]1[C@H]23 (some centres undefined)
-6% | CC1(C)CC(=O)C2=C(C1)N=C1c3ccccc3C(=O)C1C2c1ccc(Cl)cc1 (centres undefined)
-3% | CCN(CC)C(=O)COc1ccc(CC(=O)O)cc1OC
-26% | C/C(CC(=O)NC(C)C)=N\NC(=O)COc1cc(C)c(Br)cc1Br
-11% | O=C(c1csnn1)N1CCC[C@@]2(CCN(c3ccccn3)C2)C1
-5% | O=C(Nc1ccccc1Cl)NC1(C(=O)NCCCN2CCOCC2)CCCCC1
-4% | Cc1ccc(C)c(C(=O)COC(=O)c2cccc(N3C(=O)c4c(C)nc5ccccc5c4C3=O)c2)c1
-14% | Cc1ccc(SCC(=O)N2CCOCC2)cc1
? | Nc1nc(N2CCCCC2)nc2ccccc12
? | CCN(CC)c1ccc(/C=N/NC(=S)NCc2ccco2)cc1
-10% | O=C(NCc1ccccn1)c1nnc(Cc2ccc(Cl)cc2)o1
? | O=C(Cn1cc(/C=N/NC(=O)c2cccc(C(F)(F)F)c2)c2ccccc21)Nc1ccc(F)cc1
-6% | CC[N+](CC)(CC#Cc1ccccc1)CC(=O)c1ccc(Cl)cc1
-3% | COc1ccc(C(=O)Nc2cccc(C(=O)N3CCN(C)CC3)c2)cc1
4% | CCCCc1c(O)nc(SCC(=O)N2CCOCC2)[nH]c1=O
-6% | CCOC(=O)C1CCN(C(=O)c2sc3nc(-c4ccc(F)cc4)cn3c2C)CC1
28µM* | Cn1c(Cc2ccccc2)nnc1SCC(=O)c1ccc(Br)s1
-1% | COc1ccc(OC)c(NC(=O)Nc2ccccc2C)c1
-6% | Cc1ccccc1NC(=O)c1cn(-c2ccccc2)nc1-c1ccccc1
-7% | O=C1NC(=O)C2(COC(c3ccncc3)OC2)S1 (centres undefined)
-19% | Cc1[nH]c2ccccc2c1C(=O)CN1CCCCC1C (centres undefined)
? | O=C(Cc1ccccc1)NCCCc1ccccc1
5% | O=C(O)c1ccc(S(=O)(=O)c2ccccc2)cc1
16µM* | O=C(O)c1ccc(N2Cc3ccccc3C2)cc1O
-2% | CC(C)CC(=O)NC1(C(F)(F)F)C(=O)N(Cc2ccccc2)C2=C1C(=O)CC(C)(C)C2 (centres undefined)
1% | COc1ccc(CCC(=O)N2CCN(C3CCCCC3)CC2)cc1
-1% | CCC(C)NCCOc1cccc(Br)c1 (centres undefined)
-7% | COc1ccc2cc(/C=C/C(=O)c3ccco3)c(Cl)nc2c1
-5% | COc1cc(C[C@H]2C(=O)OC[C@@H]2Cc2ccc(OC)c(OC)c2)ccc1O
-2% | COc1ccc(S(=O)(=O)NCCSC(C)(C)C)cc1Cl
-9% | Cc1cc(C)nc(NC(=O)CSc2nc3ccccc3o2)n1
-8% | COc1cc(S(=O)(=O)N2CCN(Cc3ccccc3)CC2)ccc1Br
10µM* | O=C1ON=C(c2ccccc2)/C1=C/c1ccc(OS(=O)(=O)c2ccccc2)cc1

# Laid out differently: entries from further up.
> Cc1cc(N(C)C)nc(SC(C)C)n1
  HPGD block: -7%
> Cc1ccc(S(=O)(=O)N2CCN(S(C)(=O)=O)C2)cc1
  HPGD block: -2%
> C/C(CC(=O)NC(C)C)=N\NC(=O)COc1cc(C)c(Br)cc1Br
  HPGD block: -26%

# Structures listed so far shown as hits in HPGD block.
HPGD block | SMILES
11µM* | N#CC1=C2SCN(Cc3ccco3)CN2C(=O)CC1c1ccc(Cl)cc1 (centres undefined)
25µM* | CN(c1ccccc1)c1ccc(/C=C(\CCC(=O)O)c2nc3ccccc3s2)cc1[N+](=O)[O-]
28µM* | Cn1c(Cc2ccccc2)nnc1SCC(=O)c1ccc(Br)s1
16µM* | O=C(O)c1ccc(N2Cc3ccccc3C2)cc1O
10µM* | O=C1ON=C(c2ccccc2)/C1=C/c1ccc(OS(=O)(=O)c2ccccc2)cc1

# Fetched by structure from the entries so far:
HPGD block | SMILES
-1% | COc1ccc(OC)c(NC(=O)Nc2ccccc2C)c1
-7% | O=C1NC(=O)C2(COC(c3ccncc3)OC2)S1 (centres undefined)
? | CCN(CC)c1ccc(/C=N/NC(=S)NCc2ccco2)cc1

# (more compounds)
HPGD block | SMILES
-17% | COc1ccccc1Nc1nnc(SCC(=O)c2cc(C)n(CC3CCCO3)c2C)s1 (centres undefined)
-4% | CC(=O)OC(C(=O)NC1CCCCC1)c1ccncc1 (centres undefined)
28µM* | O=C(c1ccc(Cl)cc1)c1ccc(OCC(=O)N2CCOCC2)cc1
-13% | N#Cc1cn(-c2ccccc2)nc1-c1ccco1
-6% | C=C1C(=O)OC2CC1C(OC(C)=O)CC(C)=CCCC(C)=CCC[C@@]2(C)O (some centres undefined)
7% | CN(C(=O)c1ccncc1)c1nnc(-c2ccncc2)s1
-26% | O=C1CC(N2CCOCC2)C(=O)N1c1cc(Cl)cc(Cl)c1 (centres undefined)
-6% | COC(=O)CN1C(=O)Nc2ccc(Br)cc2C1c1ccccc1 (centres undefined)
-8% | O=C1C2CCCN2c2ccc(S(=O)(=O)N3CCOCC3)cc2N1Cc1cccc(C(F)(F)F)c1 (centres undefined)
-9% | COc1ccc(CNC(=O)c2cc(C3CC3)on2)cc1
-10% | Cc1ccc(Nc2ccc(S(=O)(=O)N3CCOCC3)cc2[N+](=O)[O-])c(C)c1
-25% | O=C(CNC(=O)c1ccc2ccccc2c1)OCC(=O)N1CCN(S(=O)(=O)c2ccc3ccccc3c2)CC1
-7% | COC(=O)c1cc(OC)c(OC)cc1NC(=S)N1CCC(C(N)=O)CC1
-6% | O=C1C2C3C=CC(C3)C2C(=O)N1c1n[nH]c(-c2ccccc2)n1 (centres undefined)
1% | O=C(OCC1CO1)C1CCCCC1C(=O)OCC1CO1 (centres undefined)
? | N#Cc1nc(-c2cccs2)oc1NCc1ccccc1
-16% | Cc1cccc(OCCNC(=S)NC(=O)c2cccnc2)c1
-13% | Cc1cccc2cc(CN(CC3CCCO3)C(=S)NCc3ccco3)c(=O)[nH]c12 (centres undefined)
-8% | Cc1cc(OC(=O)c2ccccc2)n(CCC#N)n1
-3% | CS(=O)(=O)N1CCN(C2Cc3ccccc3C2)CC1
-4% | COc1ccc(C(=O)NCC(=O)OCc2ccc(Br)cc2)cc1
-5% | CCOc1ccc(N2C(=O)CC(N3CC(C)OC(C)C3)C2=O)cc1 (centres undefined)
-21% | COc1cc(N2CN=c3s/c(=C\c4ccccn4)c(=O)n3C2)cc(OC)c1OC
32µM* | CCOC(=O)c1c(C)oc(NC(=O)COc2ccc(Cl)cc2C)c1C#N
-11% | CC(=O)Oc1cccc(C(=O)O)c1OC(C)=O
-5% | CCOC(=O)c1ccc(-n2ccnc2)c(NC(=O)c2ccc(C(C)(C)C)cc2)c1
5% | COCc1nc(-c2cc(OC)c(OC)c(OC)c2)no1
-8% | CCCOc1ccc(Cn2cnc3ccccc32)cc1
-17% | Cc1snc(SCC(=O)N/N=C(\N)COc2ccc(F)cc2)c1C#N
-10% | COc1ccc(CCNC(=O)C2CC(=O)N(c3ccccc3)C2)cc1OC (centres undefined)

# A portion of the library; count on the stated rates, not on these rows.
